# GIRK2 act: opens human GIRK2 potassium channels | calls only for hits at 25 µM | P48051 | HEK293-GIRK2 thallium flux, Thallos fluorescence | hit rate 0.05% among 63,000;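 active = among the strongest 0.2% of first-round signals and kept after retests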;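 note: first round at about 10 µM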
# Target sequence (P48051 whole entry, looked up): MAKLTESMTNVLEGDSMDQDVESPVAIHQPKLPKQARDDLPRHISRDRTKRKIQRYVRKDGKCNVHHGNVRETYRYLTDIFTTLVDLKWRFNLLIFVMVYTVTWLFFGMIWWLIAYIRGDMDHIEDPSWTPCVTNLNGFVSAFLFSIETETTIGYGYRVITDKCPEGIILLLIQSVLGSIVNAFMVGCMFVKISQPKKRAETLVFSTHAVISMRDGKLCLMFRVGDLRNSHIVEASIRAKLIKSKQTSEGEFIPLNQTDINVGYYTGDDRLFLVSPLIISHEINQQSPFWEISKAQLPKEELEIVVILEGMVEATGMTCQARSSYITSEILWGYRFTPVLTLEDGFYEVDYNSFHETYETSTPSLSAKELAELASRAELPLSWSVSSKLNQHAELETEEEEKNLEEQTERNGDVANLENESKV
# Calls only; i = inactive.
GIRK2 act | mol
i | COc1ccc(S(=O)(=O)NCCC(O)c2ccoc2)cc1Cl (stereo not given)
i | Cc1ccc(S(=O)(=O)N2CC(c3nc(C4CC4)no3)C2)s1
i | CCCSc1c(C)cnc2c1c(=O)n(C)c(=O)n2C
i | CC(=O)Nc1ccc(N/C=C(\C#N)c2nc(-c3cc4cc(Cl)ccc4oc3=O)cs2)cc1
i | O=C(Cn1nc(-c2ccc(F)cc2)c2sc(N3CCOCC3)nc2c1=O)c1ccccc1
i | COc1cccc(-c2nnc(NC(=O)C3CCN(S(=O)(=O)c4ccc(F)cc4)CC3)o2)c1
i | COC(=O)c1ccccc1NC(=O)CSc1nc2cc(-c3ccccc3)sc2c(=O)n1C
i | CSc1ccc(CNc2ncc3c(=O)n(Cc4ccccc4F)c(=O)[nH]c3n2)cc1
i | Cc1c(Nc2ncc([N+](=O)[O-])c(N)n2)c(=O)n(-c2ccccc2)n1C
i | O=C(NCc1cc(-c2cccs2)n(C2CCCC2)n1)C1CC=CCC1 (stereo not given)
i | O=C(NCCOc1cc(N2CCCCC2)ncn1)C1CCCC1
i | COc1cc(/C=C2\Oc3c(ccc(OC(=O)c4ccco4)c3C)C2=O)cc(OC)c1OC

GIRK2 act | mol
i | Cc1ccccc1C(=O)N1CCC2(CC1)CC(=O)c1ccccc1O2
i | COc1ccc(Cn2c(=O)n(Cc3cccc(C)c3)c(=O)c3nscc32)cc1F
i | CCCCC[C@H](O)/C=C/[C@H]1C[C@H]2C[C@@H]([C@@H]1C/C=C\CCCC(=O)O)C2(C)C
i | Cc1cc(N2C(=O)C(O)=C(C(=O)c3ccc(C)o3)C2c2ccc(C(C)(C)C)cc2)no1 (stereo not given)
i | O=C(c1cc(-c2ccc(F)cc2)n[nH]1)N1CCC(Oc2ccc(C(F)(F)F)cn2)CC1
i | O=C(CC1C(=O)N(c2ccc(F)cc2)C(=O)N1NC(=O)c1ccccc1)NCc1ccccc1 (stereo not given)
i | O=C(c1ccc(=O)[nH]n1)N1CCC(Oc2ccccn2)CC1
i | O=C(NCC1CCN(C(=O)c2ccoc2)CC1)Nc1ccc2c(c1)OCO2
i | COc1cccc(CC(=O)NC2CCN(C(=O)c3cc(-c4cccs4)[nH]n3)CC2)c1
i | O=C(O)CCC/C=C\CC1C(=O)C=C[C@@H]1/C=C/C(O)CCc1ccccc1 (stereo not given in full)
i | CC(C)c1ccc(NC(=O)Cn2nc3c(N4CCN(c5ccccc5)CC4)nccn3c2=O)cc1
i | CCc1ccc(NC(=O)Cn2c(C(=O)NCc3ccccc3Cl)cccc2=O)cc1

GIRK2 act | mol
i | O=C(c1ccc([N+](=O)[O-])o1)N1CCN(Cc2nc(-c3ccc(F)cc3)cs2)CC1
i | COc1ccc(C(=O)Nc2ccc3c(c2)CCCN3C(C)=O)cc1OC
i | CCOC(=O)c1cn[nH]c1S(=O)(=O)N(C)c1cccc(C)c1
i | Cc1nc(C)c(-c2nnc(NC(=O)c3ccc(Cl)s3)o2)s1
i | Cc1nc(CSc2nnnn2-c2ccccc2)cs1
i | Cc1nc(C(=O)N2CCN(c3ccc(N4CCCCC4C)nn3)CC2)cc(-n2cccn2)n1 (stereo not given)
i | CS(=O)(=O)Nc1cccc(NC(=O)c2ccc(Cn3ccnc3)cc2)c1
i | COC(=O)N1CCc2ccc(F)cc2C1C(=O)Nc1cccc(OC(F)F)c1 (stereo not given)
i | CC(C)Sc1ccc(CC(=O)NCCC(O)c2ccccc2)cc1 (stereo not given)
i | Cc1nc(-c2cccs2)sc1C(=O)O
i | O=C(Nc1ccc(F)cc1)Nc1ccc(Cl)c(N2CCCS2(=O)=O)c1
i | CCOC(=O)c1ccc(-n2c(C)c(C)n3c4c(=O)n(CC)c(=O)n(C)c4nc23)cc1

GIRK2 act | mol
i | CCCCn1c(C(=O)Nc2cccc(C(F)(F)F)c2)cc2c(=O)n(C)c(=O)n(C)c21
i | Cc1ccc(C)c2sc(OC3CCN(S(=O)(=O)c4cccnc4)CC3)nc12
i | CN(C)c1cccc(C(=O)NC2CCN(C(=O)c3cc(-c4cccs4)[nH]n3)CC2)c1
i | COc1ccc(/C=C2\Oc3c(ccc4c3CN(CCN3CCOCC3)CO4)C2=O)c(OC)c1
i | Cc1csc(C(=O)Nc2ccc(-n3nnn(C)c3=O)cc2)c1
i | CNC(=O)CSc1nnc(N2CCN(C(=O)c3ccc(OC(C)C)cc3)CC2)s1
i | O=S(=O)(c1ccc(N2CCN(c3ccccc3F)CC2)nn1)C1CCCCC1
i | COc1cccc(CNC(=O)c2cn(-c3cc(N(C)C)ncn3)cn2)c1
i | Cc1ccc(S(=O)(=O)c2cn(CC(=O)Nc3ccc(F)c(Cl)c3)c3ccccc3c2=O)cc1C
i | Cn1nc(C(=O)N2CC(Oc3nc4c(Cl)cccc4s3)C2)ccc1=O
i | COC(=O)c1ccc(C2c3c(oc4ccc(Cl)cc4c3=O)C(=O)N2c2ccccn2)cc1 (stereo not given)
i | O=C(CN1C(=O)CC(c2cccs2)CC1=O)c1ccc(Cl)cc1

GIRK2 act | mol
i | O=C(CSCc1ccccc1)N1CCC(Cn2cnc3ccccc32)CC1
i | CCN(C(=O)COc1cc(C)nc(N2CCC(C)CC2)n1)c1ccccc1
i | Cc1nc(SCCC(=O)NCc2ccc3c(c2)OCO3)c2c3c(sc2n1)CCC3
i | CCc1ccc(S(=O)(=O)Nc2ccc3c(c2)CCCN3S(=O)(=O)c2ccccc2)cc1
i | Cc1ccccc1-n1nnc(C(=O)NCc2c(C)noc2C)c1-c1ccncc1
i | O=S(=O)(c1cccs1)N1CCC(Oc2ccc(C(F)(F)F)cn2)CC1
i | Cn1c(=O)c2cc(C(=O)NCC3CCCO3)n(Cc3ccccc3)c2n(C)c1=O (stereo not given)
i | COCCNC(=O)c1nnn(-c2ccc(NC(=O)Nc3ccc(C(F)(F)F)cc3)cc2)n1
i | O=S(=O)(CCc1ccccc1)NCCOc1cccc(C(F)(F)F)c1
i | CCOc1ccc(-c2noc(CN3C(=O)COc4ccc(S(=O)(=O)CC)cc43)n2)cc1
i | CCOC(=O)CC1=CC(SCC(=O)Nc2ccc(F)cc2C)=Nc2ccccc2N1
i | CC1CCCCC12NC(=O)N(CC(N)=O)C2=O (stereo not given)

GIRK2 act | mol
i | Cc1cc(NC(=O)c2cc(=O)c3ccccc3o2)n(-c2nc(-c3cccs3)cs2)n1
i | Cc1c(C(=O)NCC2(c3cccs3)CCOCC2)cnn1-c1ccccc1
i | CC(C)(C)CC(=O)N1CCC(Oc2ccc(C(F)(F)F)cn2)CC1
i | O=C(Cn1nc2c(Oc3ccccc3)nccn2c1=O)Nc1ccccc1Cl
i | Cc1nc(-c2ccccc2Cl)sc1CNC(=O)c1ccc(=O)n(C)n1
i | O=C(c1cc2ccccc2o1)N1CCC(Oc2nc3c(Cl)cccc3s2)CC1
i | Cc1cc(C)n(-c2ccc(=O)n(CCNC(=O)c3cc(C)on3)n2)n1
i | CCOc1cc(S(=O)(=O)NCc2ccco2)ccc1Br
i | O=C(Nc1ccc(F)cc1)c1nnn(-c2ccccc2Cl)c1-c1ccccn1
i | CN(C)C(CNC(=O)C(=O)Nc1ccc2c(c1)N(S(C)(=O)=O)CCC2)c1cccn1C (stereo not given)
i | O=c1cccnn1CCCNS(=O)(=O)c1ccc(C(F)(F)F)cc1
i | COc1ccc(-c2noc(-c3ccc(=O)n(CC(=O)Nc4ccc(C(C)C)cc4)c3)n2)cc1

GIRK2 act | mol
i | Cc1ccc(-n2nnnc2CN2CCN(C(=O)Nc3cccc(C)c3)CC2)cc1
i | CCCCOc1ccc(C(=O)N2CCN(Cc3nnnn3-c3ccc(C)cc3)CC2)cc1
i | COc1ccc(-c2cc3ccc(OC(=O)c4cccs4)cc3oc2=O)c(OC)c1
i | Cc1cc(C(F)(F)F)nc(CCNC(=O)c2ccc(F)c(F)c2)n1
i | O=C(NCc1ccc2c(c1)OCO2)c1cc(=O)c(OCc2ccccc2)co1
i | CCn1c(SCC(=O)Nc2cccc(OC)c2)nc2c3cc(OC)ccc3n(C)c2c1=O
i | O=C(CCCN1CCC(O)(c2ccc(Cl)cc2)CC1)c1ccc(F)cc1
i | COc1ccccc1-c1cn[nH]c1-c1ccc(OCC(=O)NN)cc1O
i | CCn1c(SCC(=O)Nc2c(C)cc(C)cc2C)nc2nc(N3CCC(C)CC3)sc2c1=O
i | N#Cc1ccc(C(=O)NCCC(O)C2CC2)cc1 (stereo not given)
i | COc1ccccc1C(=O)Nc1ccc(Cn2cnc(C(=O)Nc3cccc(F)c3)c2)cc1
i | Cc1nc(NC(=O)c2cc3n(n2)CCCO3)sc1C

# Three entries from above, arranged by molar mass, largest number first:
GIRK2 act | mol
i | CCn1c(SCC(=O)Nc2c(C)cc(C)cc2C)nc2nc(N3CCC(C)CC3)sc2c1=O
i | CCn1c(SCC(=O)Nc2cccc(OC)c2)nc2c3cc(OC)ccc3n(C)c2c1=O
i | N#Cc1ccc(C(=O)NCCC(O)C2CC2)cc1 (stereo not given)

# (listing goes on)
GIRK2 act | mol
i | CSCC(C)(O)CNC(=O)c1cc(Br)ccc1Cl (stereo not given)
i | CCOc1cc(C)ccc1S(=O)(=O)N1CCCC1
i | COc1ccc(OCc2noc(CNC(=O)COc3ccc(Cl)cc3Cl)n2)cc1
i | O=C(O[C@H]1[C@@H]2C=CO[C@@H](O[C@@H]3O[C@H](CO)[C@@H](O)[C@H](O)[C@H]3O)[C@@H]2[C@@]2(CO)O[C@@H]12)c1ccc(O)cc1
i | CCOc1ccc2nc(-c3ccc(N)cc3)sc2c1
i | O=C(Cc1ccccc1Nc1c(Cl)cccc1Cl)Oc1ccc(-c2cc(=S)ss2)cc1
i | Cc1cc(C)c(C#N)c(SCc2cc(=O)oc3cc(O)c(Cl)cc23)n1
i | O=C(NCc1cccs1)C(=O)NCC1(c2ccc(F)cc2)CC1
i | O=C(c1cccnc1)N1CCCC(c2nnc(C(F)(F)F)o2)C1 (stereo not given)
i | Cc1nc(-c2ccccc2Cl)sc1CNC(=O)C1Oc2ccccc2OC1C (stereo not given)
i | COc1ccc(OC)c(-c2cc(C(=O)NCC#CCOc3ccccc3OC)[nH]n2)c1
i | CCNC(=O)N1CCN(Cc2nc3ccccc3[nH]2)CC1

# Shown as labelled records: two of the compounds above.
O=C(O[C@H]1[C@@H]2C=CO[C@@H](O[C@@H]3O[C@H](CO)[C@@H](O)[C@H](O)[C@H]3O)[C@@H]2[C@@]2(CO)O[C@@H]12)c1ccc(O)cc1
  GIRK2 act: i

CCOc1ccc2nc(-c3ccc(N)cc3)sc2c1
  GIRK2 act: i

# Next structures follow:
GIRK2 act | mol
i | CCCCC[C@H](O)/C=C/[C@@H]1[C@@H](C/C=C/CCCC(=O)O)[C@@H](O)C[C@H]1O
i | CC(C)Sc1ccc(CC(=O)NCC2CCN(C(=O)c3ccncc3)CC2)cc1
i | COc1ccc(-n2nnc(C(=O)Nc3cccc(Cl)c3Cl)n2)cc1
i | O=C(Nc1ccc(F)c(F)c1)c1ccc2nc[nH]c2c1
i | O=C(CCS(=O)(=O)c1ccccc1)NCC1CCN(C(=O)Oc2ccccc2)CC1
i | Cn1c(C2CCN(S(C)(=O)=O)CC2)nn(CC(=O)NCc2ccc(F)cc2)c1=O
i | COc1cccc(CNC(=O)c2cn(-c3ccc(Cl)cc3)nn2)c1
i | Cc1cc(C)n(-c2nc(CCNS(=O)(=O)c3cc(C)c(Cl)cc3Cl)cs2)n1
i | CC(=O)Nc1ccc(SCCCC(=O)N2CCN(c3ccccc3)CC2)nn1
i | COc1cc(NC(=O)c2nnn(Cc3nc(-c4ccc(OC(C)C)cc4)oc3C)c2N)cc(OC)c1
i | COc1ccc(CCNC(=O)CN(C)c2nc3c(OC)cccc3s2)cc1OC
i | O=C(N1CCN(Cc2nnnn2-c2ccccc2)CC1)C12CC3CC(CC(C3)C1)C2

GIRK2 act | mol
i | COc1ccc(N2CC(c3nc(-c4ccccc4Cl)no3)CC2=O)cc1 (stereo not given)
i | Cc1nc(SCc2ccccc2)[nH]c(=O)c1CC(=O)NCCC1=CCCCC1
i | Cc1nnc(NC(=O)c2ccc(OCc3nc(-c4ccco4)cs3)cc2)s1
i | CCOC(=O)c1ccc(NC(=O)CSc2nccnc2N2CCN(c3ccc(F)cc3)CC2)cc1
i | CCOc1ccc(CNC(=O)C2CCCN(c3nc4c(-c5ccccc5)csc4c(=O)[nH]3)C2)cc1 (stereo not given)
i | O=C(COc1ccccc1)Nc1nc2c(s1)CN(S(=O)(=O)C1CC1)CC2
i | Cc1ccc(=O)n(C(C)C(=O)NC(c2ccccc2)c2ccccc2)n1 (stereo not given)
i | CCCCC(=O)Nc1nonc1-c1ccc(C)cc1
i | Nc1ncc(-c2cccc(S(N)(=O)=O)c2)c2scc(-c3ccc(F)c(Cl)c3)c12
i | CCCCCCCCCCCCC/C=C/[C@H](O)C(CO)NC(=O)CCCCCCCCCCCCCCCCCCCCCCC (stereo not given in full)
i | O=C(/C=C/c1ccccc1Cl)Nc1nnc(-c2ccc(Br)s2)o1
i | Cc1cc(=O)c2cc(C(=O)NCCc3cccs3)ccc2[nH]1

GIRK2 act | mol
i | COc1ccc(Nc2c(C(=O)N3CCCCCC3)cnc3nc(C)ccc23)c(OC)c1
i | CCOc1ccc(S(=O)(=O)NCCCN2CCN(c3ccccc3)CC2)cc1F
i | CCCCCCCOC(=O)C1=C(C)NC(=O)NC1c1ccccc1OCC (stereo not given)
i | O=S(=O)(c1ccccc1)N(CC(F)(F)F)c1ccc(C(O)(C(F)(F)F)C(F)(F)F)cc1

# Quoted from the listing, 7 compounds:
GIRK2 act | mol
i | CCCCCCCCCCCCC/C=C/[C@H](O)C(CO)NC(=O)CCCCCCCCCCCCCCCCCCCCCCC (stereo not given in full)
i | O=C(/C=C/c1ccccc1Cl)Nc1nnc(-c2ccc(Br)s2)o1
i | Cc1cc(=O)c2cc(C(=O)NCCc3cccs3)ccc2[nH]1
i | COc1ccc(Nc2c(C(=O)N3CCCCCC3)cnc3nc(C)ccc23)c(OC)c1
i | CCOc1ccc(S(=O)(=O)NCCCN2CCN(c3ccccc3)CC2)cc1F
i | CCCCCCCOC(=O)C1=C(C)NC(=O)NC1c1ccccc1OCC (stereo not given)
i | O=S(=O)(c1ccccc1)N(CC(F)(F)F)c1ccc(C(O)(C(F)(F)F)C(F)(F)F)cc1

# From PubChem

# Only part of the results is shown; rates above refer to the full screens.
